Bioassay records: PubChem, Broad Institute
A1 apoptosis 2 – blocks A1, raising caspase activity; MEF A1-2A-BIM cells, caspase-Glo luminescence, 3 h; percent of clofoctol response, DMSO zero; caspase activation, % (no concentration beside the values); 24,000 tested, under 10 active; in the data active = caspase activation above about 5.9%;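 note: wells of about 30 µL received 50 nL stock; the first replicate is given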
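Material: A1-2A-BIM-expressing MEF cells. Buffer or medium: RPMI-1640 plus 10% FBS. Incubation: cells settled overnight, compound exposure 3 h at 37 °C, 5% CO2. Signal: Caspase-Glo 3/7 luminescence, 1 h at room temperature.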
* marks the source's active call; other numbers are inactive results. The list is partial (hit frequency here may not be typical).

The opening 2 records, to show the layout:
SMILES | A1 apoptosis 2
COc1ccc(CN(C)C[C@@H]2Oc3c(NC(=O)Nc4ccc(OC)cc4)cccc3C(=O)N([C@H](C)CO)C[C@@H]2C)cc1 | -0.5
C[C@@H]1CN([C@@H](C)CO)C(=O)Cc2cc(NC(=O)CCCN(C)C)ccc2O[C@@H]1CN(C)S(=O)(=O)c1ccccc1 | -0.7

The whole of this part, from the first entry:
SMILES | A1 apoptosis 2
COc1ccc(CN(C)C[C@@H]2Oc3c(NC(=O)Nc4ccc(OC)cc4)cccc3C(=O)N([C@H](C)CO)C[C@@H]2C)cc1 | -0.5
C[C@@H]1CN([C@@H](C)CO)C(=O)Cc2cc(NC(=O)CCCN(C)C)ccc2O[C@@H]1CN(C)S(=O)(=O)c1ccccc1 | -0.7
C[C@H]1CN([C@@H](C)CO)C(=O)c2cc(NC(=O)Cc3cn(C)c4ccccc34)ccc2O[C@H]1CN(C)S(=O)(=O)c1ccccc1 | -0.2
C[C@@H]1CN([C@@H](C)CO)C(=O)Cc2cc(NC(=O)Nc3ccc(F)cc3)ccc2O[C@@H]1CN(C)CC1CCCCC1 | 0.4
C[C@@H]1CCCCO[C@@H](CN(C)C(=O)Nc2ccccc2)[C@H](C)CN([C@@H](C)CO)C(=O)c2cc(NC(=O)c3ccccc3)ccc2O1 | 0.5
COc1ccc(S(=O)(=O)N(C)C[C@H]2Oc3c(NC(=O)Nc4c(C)noc4C)cccc3C(=O)N([C@@H](C)CO)C[C@@H]2C)cc1 | -1.4
C[C@H](CO)N1C[C@H](C)[C@H](CN(C)C(=O)Nc2cccc3ccccc23)Oc2ccc(NS(=O)(=O)c3cccs3)cc2CC1=O | 0.1
C[C@@H]1CN([C@H](C)CO)C(=O)c2cc(NC(=O)Nc3ccccc3)ccc2O[C@@H](C)CCCCO[C@@H]1CN(C)S(=O)(=O)c1ccc(Cl)cc1 | -0.6
C[C@H](CO)N1C[C@H](C)[C@H](CN(C)C(=O)Nc2ccnc(N3CCOCC3)c2)OCc2cn(nn2)CCCC1=O | 0.2
Cc1ccc(S(=O)(=O)N(C)C[C@H]2OCCCC[C@H](C)Oc3ccc(NC(=O)C4CCCCC4)cc3C(=O)N([C@H](C)CO)C[C@H]2C)cc1 | 0.6
C[C@@H]1CN([C@@H](C)CO)C(=O)c2cc(NS(=O)(=O)c3ccccc3)ccc2O[C@H]1CN(C)C(=O)Nc1ccc(C(F)(F)F)cc1 | 0.6
Cc1noc(C)c1S(=O)(=O)Nc1ccc2c(c1)C(=O)N([C@@H](C)CO)C[C@@H](C)[C@@H](CN(C)C)OCCCC[C@H](C)O2 | -0.8
C[C@@H]1CN([C@@H](C)CO)C(=O)c2cccc(NC(=O)c3ccncc3)c2O[C@H]1CN(C)Cc1ccc(C(=O)O)cc1 | -0.3
C[C@@H]1CN([C@H](C)CO)C(=O)c2cccc(N(C)C)c2O[C@H]1CN(C)Cc1ccncc1 | -0.2
CNC[C@H]1Oc2ccc(NC(=O)c3ccncc3)cc2C(=O)N([C@H](C)CO)C[C@@H]1C | -0.1
Cc1noc(C)c1NC(=O)N(C)C[C@@H]1OCCCC[C@@H](C)Oc2ccc(NC(=O)NC(C)C)cc2C(=O)N([C@H](C)CO)C[C@H]1C | 0.6
Cc1noc(C)c1S(=O)(=O)Nc1cccc2c1O[C@@H](CN(C)S(=O)(=O)c1cn(C)cn1)[C@@H](C)CN([C@@H](C)CO)C2=O | -0.5
C[C@H](CO)N1C[C@H](C)[C@@H](CN(C)S(C)(=O)=O)Oc2ccc(NC(=O)C3CC3)cc2CC1=O | 0.3
CCCN(C)C[C@@H]1OCCCC[C@H](C)Oc2ccc(NC(=O)Cc3ccccc3)cc2C(=O)N([C@H](C)CO)C[C@@H]1C | -0.5
Cc1ccc(S(=O)(=O)Nc2ccc3c(c2)C(=O)N([C@@H](C)CO)C[C@@H](C)[C@@H](CN(C)C(=O)CCCN(C)C)OCCCC[C@@H](C)O3)cc1 | 0.3
C[C@H](CO)N1C[C@H](C)[C@@H](CN(C)Cc2ccc(C(=O)O)cc2)Oc2ccc(NC(=O)CCN3CCOCC3)cc2C1=O | 1.9
COc1ccc(CN(C)C[C@H]2Oc3c(NC(=O)c4cc(C)nn4C)cccc3C(=O)N([C@H](C)CO)C[C@@H]2C)cc1 | 0.6
O=C1O[C@H](c2ccccc2)[C@H](c2ccccc2)N2[C@H]1[C@@H](C(=O)N1CCN(c3ncccn3)CC1)[C@]1(C(=O)Nc3ccccc31)[C@H]2c1ccccc1OCCO | -0.8
C[C@H]1CN([C@@H](C)CO)C(=O)c2cccc(NC(=O)C3CCOCC3)c2O[C@H]1CN(C)S(=O)(=O)c1cn(C)cn1 | 1.4
COc1ccc(CN(C)C[C@@H]2OCCCC[C@@H](C)Oc3ccc(NC(=O)c4ccncc4)cc3C(=O)N([C@@H](C)CO)C[C@@H]2C)cc1 | -0.3
CC(C)NC(=O)Nc1ccc2c(c1)C(=O)N([C@@H](C)CO)C[C@H](C)[C@H](CN(C)C(=O)Nc1ccc(C(F)(F)F)cc1)O2 | 1.5
CNC[C@@H]1Oc2c(NC(=O)NC(C)C)cccc2C(=O)N([C@@H](C)CO)C[C@H]1C | 1.5
CNC[C@H]1OCCCC[C@@H](C)Oc2ccc(NC(=O)Nc3cccc4ccccc34)cc2C(=O)N([C@@H](C)CO)C[C@H]1C | -0.2
C[C@@H]1CCCCO[C@H](CN(C)C)[C@H](C)CN([C@H](C)CO)C(=O)c2cc(NC(=O)Nc3ccc4c(c3)OCO4)ccc2O1 | -0.7
C[C@@H]1CN([C@@H](C)CO)C(=O)c2cc(NS(=O)(=O)c3ccc(Cl)cc3)ccc2O[C@@H](C)CCCCO[C@@H]1CN(C)C(=O)Nc1cccc2ccccc12 | -0.4

Six records drawn at random from those above:
SMILES | A1 apoptosis 2
CCCN(C)C[C@@H]1OCCCC[C@H](C)Oc2ccc(NC(=O)Cc3ccccc3)cc2C(=O)N([C@H](C)CO)C[C@@H]1C | -0.5
C[C@H](CO)N1C[C@H](C)[C@@H](CN(C)Cc2ccc(C(=O)O)cc2)Oc2ccc(NC(=O)CCN3CCOCC3)cc2C1=O | 1.9
C[C@H](CO)N1C[C@H](C)[C@@H](CN(C)S(C)(=O)=O)Oc2ccc(NC(=O)C3CC3)cc2CC1=O | 0.3
C[C@@H]1CN([C@@H](C)CO)C(=O)c2cc(NS(=O)(=O)c3ccc(Cl)cc3)ccc2O[C@@H](C)CCCCO[C@@H]1CN(C)C(=O)Nc1cccc2ccccc12 | -0.4
C[C@@H]1CCCCO[C@H](CN(C)C)[C@H](C)CN([C@H](C)CO)C(=O)c2cc(NC(=O)Nc3ccc4c(c3)OCO4)ccc2O1 | -0.7
COc1ccc(CN(C)C[C@@H]2OCCCC[C@@H](C)Oc3ccc(NC(=O)c4ccncc4)cc3C(=O)N([C@@H](C)CO)C[C@@H]2C)cc1 | -0.3

Remaining list, next part
SMILES | A1 apoptosis 2
C[C@H]1CN([C@@H](C)CO)C(=O)Cc2cc(NC(=O)Nc3ccccc3)ccc2O[C@@H]1CN(C)C(=O)Nc1ccc2c(c1)OCO2 | 0.5
C[C@H](CO)N1C[C@H](C)[C@@H](CN(C)C(=O)c2ccccc2)OCCCC[C@H](C)Oc2ccc(NC(=O)c3ccncc3)cc2C1=O | -0.1
Cc1noc(C)c1NC(=O)N(C)C[C@@H]1Oc2ccc(NC(=O)CCCCCC(=O)Nc3ccccc3N)cc2C(=O)N([C@@H](C)CO)C[C@@H]1C | -1.1
O=C(CCCCCCC(=O)Nc1ccccc1O)N/N=C/c1cc2c(cc1Br)OCO2 | -0.2
O=C(CCCCCC(=O)N/N=C/c1ccc(Br)cc1)NO | 0.3
Cc1noc(C)c1S(=O)(=O)N(C)C[C@H]1OCCCC[C@@H](C)Oc2ccc(NC(=O)NC3CCCCC3)cc2C(=O)N([C@@H](C)CO)C[C@H]1C | -0.6
CNC[C@@H]1Oc2c(NC(=O)C3CC3)cccc2C(=O)N([C@@H](C)CO)C[C@H]1C | 1.0
C[C@H]1CN([C@@H](C)CO)C(=O)c2cc(NC(=O)Cc3cn(C)c4ccccc34)ccc2O[C@H]1CN(C)S(=O)(=O)c1ccc(Cl)cc1 | 1.0
C[C@@H]1CN([C@@H](C)CO)C(=O)c2cc(NS(C)(=O)=O)ccc2O[C@@H](C)CCCCO[C@@H]1CN(C)Cc1ccc2c(c1)OCO2 | 0.3
C[C@@H]1CN([C@@H](C)CO)C(=O)Cc2cc(NC(=O)Nc3ccccc3)ccc2O[C@@H]1CN(C)S(=O)(=O)c1ccccc1 | 0.0
COc1ccc(NC(=O)Nc2ccc3c(c2)C(=O)N([C@H](C)CO)C[C@@H](C)[C@@H](CN(C)S(=O)(=O)c2ccc(C)cc2)O3)cc1 | 0.0
O=C1O[C@@H](c2ccccc2)[C@@H](c2ccccc2)N2[C@@H](c3ccccc3OCCO)[C@]3(C(=O)Nc4ccc(C#CCCO)cc43)[C@@H](C(=O)Nc3nc4ccccc4s3)[C@H]12 | 0.2
C[C@H]1CN([C@@H](C)CO)C(=O)c2cccc(NC(=O)c3cnccn3)c2O[C@@H]1CN(C)Cc1ccc(-c2ccccc2)cc1 | -0.8
C[C@@H]1CN([C@@H](C)CO)C(=O)Cc2cc(NS(=O)(=O)c3ccccc3)ccc2O[C@@H]1CN(C)S(C)(=O)=O | 1.5
C[C@@H]1CCCCO[C@@H](CN(C)C)[C@@H](C)CN([C@H](C)CO)C(=O)c2cc(NC(=O)CCCN(C)C)ccc2O1 | -0.4
C[C@H]1CN([C@@H](C)CO)C(=O)c2cc(NC(=O)Cn3cnnn3)ccc2O[C@H]1CN(C)CC1CCCCC1 | 0.9
C[C@H](CO)N1C[C@H](C)[C@H](CN(C)Cc2ccc(C(=O)Nc3ccccc3N)cc2)Oc2ccc(NS(=O)(=O)c3ccc(Cl)cc3)cc2C1=O | 0.9
Cc1noc(C)c1S(=O)(=O)Nc1ccc2c(c1)C(=O)N([C@H](C)CO)C[C@H](C)[C@@H](CN(C)C(=O)c1ccncc1)OCCCC[C@H](C)O2 | 1.1
C[C@@H]1CCCCO[C@@H](CN(C)C(=O)Nc2ccccc2)[C@@H](C)CN([C@H](C)CO)C(=O)c2cc(N(C)C)ccc2O1 | 0.6
COc1ccc(NC(=O)Nc2cccc3c2O[C@H](CN(C)C(=O)Nc2ccc(C(F)(F)F)cc2)[C@@H](C)CN([C@H](C)CO)C3=O)cc1 | 0.9
CN(C)CCCCNC(=O)[C@@H]1C[C@@H]2C(=O)N[C@@H](Cc3ccccc3)C(=O)N2[C@@H]1c1ccc(O)cc1 | -0.1
Cc1noc(C)c1NC(=O)N(C)C[C@H]1OCCCC[C@H](C)Oc2ccc(NS(=O)(=O)c3cccs3)cc2C(=O)N([C@@H](C)CO)C[C@@H]1C | -0.2
C[C@H]1CCCCO[C@H](CN(C)C(=O)CCCN(C)C)[C@@H](C)CN([C@@H](C)CO)C(=O)c2cc(NC(=O)NC3CCCCC3)ccc2O1 | 1.7
Cc1noc(C)c1NC(=O)Nc1ccc2c(c1)C(=O)N([C@H](C)CO)C[C@@H](C)[C@H](CN(C)Cc1ccc3c(c1)OCO3)OCCCC[C@@H](C)O2 | -0.5
C[C@H]1CN([C@@H](C)CO)C(=O)c2cccc(NC(=O)c3ccncc3)c2O[C@@H]1CN(C)Cc1ccc(C(=O)Nc2ccccc2N)cc1 | 0.8
C[C@@H]1CN([C@@H](C)CO)C(=O)Cc2cc(NC(=O)Cn3cnnn3)ccc2O[C@@H]1CN(C)C | 1.2
COc1ccc(CN(C)C[C@@H]2OCCCC[C@@H](C)Oc3ccc(NC(=O)CCC(F)(F)F)cc3C(=O)N([C@@H](C)CO)C[C@H]2C)cc1 | -0.6
CC(C)NC(=O)N(C)C[C@@H]1Oc2c(NC(=O)c3ccncc3)cccc2C(=O)N([C@H](C)CO)C[C@H]1C | 0.8
C[C@H](CO)N1C[C@H](C)[C@@H](CN(C)S(=O)(=O)c2ccc(Cl)cc2)Oc2c(NC(=O)c3nc4ccccc4s3)cccc2C1=O | -0.7
C[C@@H]1CN([C@@H](C)CO)C(=O)Cc2cc(NS(=O)(=O)c3cccs3)ccc2O[C@@H]1CN(C)C(=O)Nc1ccc(F)cc1 | -0.4
C[C@H]1CN([C@@H](C)CO)C(=O)c2cccc(NC(=O)CCCCCC(=O)Nc3ccccc3N)c2O[C@@H]1CN(C)CC1CC1 | 1.9
O=C(NCc1nc2ccccc2[nH]1)C1=C[C@@H](c2coc3ccccc3c2=O)C[C@@H](OCc2ccc(CO)cc2)O1 | -0.9
C[C@H](CO)N1C[C@H](C)[C@H](CN(C)C(=O)Nc2ccccc2)Oc2ccc(NC(=O)Nc3ccc(C(F)(F)F)cc3)cc2CC1=O | -0.9
C[C@H]1CN([C@@H](C)CO)C(=O)Cc2cc(NC(=O)NC3CCCCC3)ccc2O[C@H]1CN(C)S(=O)(=O)c1ccc(Cl)cc1 | 1.2
CNC[C@@H]1Oc2ccc(NC(=O)c3ccncc3)cc2C(=O)N([C@@H](C)CO)C[C@@H]1C | 0.5
CC(C)NC(=O)N(C)C[C@@H]1Oc2c(NC(=O)C3CCOCC3)cccc2C(=O)N([C@@H](C)CO)C[C@H]1C | 0.1
O=C(O)CCCCCCC(=O)N/N=C/c1ccc(O)cc1Br | -0.7
C[C@H]1CN([C@@H](C)CO)C(=O)c2cc(N(C)C)ccc2O[C@H]1CN(C)Cc1ccncc1 | -0.7
C[C@@H]1CCCCO[C@H](CN(C)Cc2ccc(C(F)(F)F)cc2)[C@@H](C)CN([C@@H](C)CO)C(=O)c2cc(NC(=O)NC3CCCCC3)ccc2O1 | -0.8
C[C@H](CO)N1C[C@H](C)[C@H](CN(C)Cc2ccc(C(F)(F)F)cc2)Oc2ccc(N(C)C)cc2CC1=O | -0.5
C[C@H](CO)N1C[C@H](C)[C@@H](CN(C)Cc2ccc(C(=O)O)cc2)Oc2ccc(NC(=O)Cn3cnnn3)cc2C1=O | 1.1
